# Screens as filed in PubChem BioAssay.
# S aureus helic: S. aureus DNA helicase inhibition; inhibition, %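 (tested at about 80 µM)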; purified S. aureus helicase, fluorescence unwinding assay; about half of the hits fall short of the stated cut; 0.05% of 120,000 active;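 active means both duplicates at 50% or more, or one of them with a favoured structure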;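 further: 0% = mean of negative control wells and 100% = mean of positive control wells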
# MgrA-DNA mod: S. aureus MgrA-DNA binding modulation. fluorescence polarization. inhibition, %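 (about 10 µg/mL by stock and volumes)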. 0.13% of 84,000 active;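 active means above 50% in either of two replicates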;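 further: 0% = protein plus DNA without compound and 100% = DNA alone without protein; higher means less MgrA bound to DNA so lower polarization; one replicate is shown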
# An asterisk follows results filed as active; · = not tested or not shown.
SMILES,S aureus helic,MgrA-DNA mod
NC(=O)c1cnc2n(c1=O)CCS2,·,-2.1
COC(=O)c1cc(=O)c2c(SC)nc(-c3ccccc3)nc2[nH]1,8.0,-1.8
COc1cccc(Nc2nc3ccccc3s2)c1,·,-2.0
COC(=O)C(CC(C)C)NC(=O)c1ccco1 (stereo unspecified),-11.0,1.2
N#Cc1c(-c2ccccc2)noc1/C=C/NCc1ccccc1,·,-1.3
Nc1c(C(=O)c2ccccc2O)cnn1C(=S)NC1CCCCC1,-9.0,·
CC1CCCN(C(=O)COC(=O)Cc2n[nH]c(=O)c3ccccc23)C1 (stereo unspecified),11.0,·
CCOC(=O)c1cc(-c2ccc(Cl)cc2)oc1/C=N/OC(=O)c1ccco1,-11.0,·
CC1CCCC(C)N1C(=O)COC(=O)/C=C/c1ccc(Br)o1 (stereo unspecified),7.0,·
O=C(Nn1ncc2ccccc21)c1ccccc1,23.0,0.7
C=CCn1c(N)c(C(=O)Nc2ccc(C)cc2)c2nc3ccccc3nc21,7.0,5.4
NC(=O)CN(Cc1ccccc1F)S(=O)(=O)c1ccc(Cl)cc1,8.0,-1.9
Cc1cc2c(cc1C)CSC1(CCCCC1C)SC2 (stereo unspecified),·,-2.7
CC12CNCC(C)(CN(C(=O)CCC(=O)O)C1)C2=O,0.0,3.1
COc1ccc2oc(C(=O)OCC(=O)Nc3cccnc3Cl)c(C)c2c1,-14.0,·
COc1ccc2c(c1OC)C(=O)OC2CC(=O)c1ccccc1 (stereo unspecified),10.0,2.4
O=C1c2ccccc2C(=O)N1CC(O)CN1CCN(c2ccccc2Cl)CC1 (stereo unspecified),6.0,-2.6
O=c1cc(-c2ccccc2)c2ccc(O)c(CN3CCOCC3)c2o1,16.0,·
CCCn1c(=O)n(C)c(=O)c2c(SCc3cc(=O)n4ccsc4n3)nc(CC(C)C)nc21,12.0,·
COc1ccc(-c2csc(N)n2)cc1OC,15.0,1.6
O=C(COc1coc(CN2CCN(Cc3ccccc3)CC2)cc1=O)NCC1CCCO1 (stereo unspecified),11.0,·
N#Cc1ccc(C(=O)OC2CCCCC2=O)cc1 (stereo unspecified),3.0,·
Cc1ccc(-c2ocnc2C(=O)O)cc1,·,-1.9
Cc1nn(-c2ccccc2)c(OC(=O)C2CC2)c1S(=O)(=O)c1ccccc1,-9.0,·
CCN(Cc1cc(OC)c(OC)c(OC)c1)C(=S)Nc1cccc(SC)c1,·,-0.6

# Five compounds from above, arranged by formula weight, smallest number first:
SMILES,S aureus helic,MgrA-DNA mod
COC(=O)C(CC(C)C)NC(=O)c1ccco1 (stereo unspecified),-11.0,1.2
N#Cc1ccc(C(=O)OC2CCCCC2=O)cc1 (stereo unspecified),3.0,·
Cc1cc2c(cc1C)CSC1(CCCCC1C)SC2 (stereo unspecified),·,-2.7
CC1CCCC(C)N1C(=O)COC(=O)/C=C/c1ccc(Br)o1 (stereo unspecified),7.0,·
Cc1nn(-c2ccccc2)c(OC(=O)C2CC2)c1S(=O)(=O)c1ccccc1,-9.0,·

# Among those listed so far, these have an aryl thioether with sulfur outside any ring:
SMILES,S aureus helic,MgrA-DNA mod
COC(=O)c1cc(=O)c2c(SC)nc(-c3ccccc3)nc2[nH]1,8.0,-1.8
CCCn1c(=O)n(C)c(=O)c2c(SCc3cc(=O)n4ccsc4n3)nc(CC(C)C)nc21,12.0,·
CCN(Cc1cc(OC)c(OC)c(OC)c1)C(=S)Nc1cccc(SC)c1,·,-0.6

# (more compounds)
SMILES,S aureus helic,MgrA-DNA mod
Nc1nc2ccc(S(=O)(=O)c3ccccc3)cc2[nH]1,13.0,-0.7
O=C1c2cccc3c(N4CCOCC4)ccc(c23)C(=O)N1c1ccccc1,-33.0,23.6
CN1c2ccccc2C2=C(C(c3cccnc3)C(C#N)=C(N)O2)S1(=O)=O (stereo unspecified),21.0,·
COC(=O)c1cc(OC)c(OC)cc1NC(=O)c1cccc(C)c1,·,-1.2
CCn1c(=NC(=O)c2ccc(S(=O)(=O)N3CCCC3)cc2)sc2ccccc21,29.0,·
O=C(C1CC(=O)N(c2ccc(OCc3ccccc3Cl)cc2)C1)N1CCOCC1 (stereo unspecified),4.0,-1.8
O=C(COC(=O)c1ccccc1C(=O)c1ccccc1)NCc1ccccc1,-23.0,2.0
O=C(O)C1Cc2ccccc2CN1C(=O)c1ccccc1 (stereo unspecified),-13.0,·
NC(=O)CSc1ccc(-c2ccccc2)nn1,-10.0,·
Cc1cccc(N2CCN(C(c3nnnn3C3CCCC3)C(C)C)CC2)c1C (stereo unspecified),9.0,1.2
O=S(=O)(c1cccc(Cl)c1Cl)N1CCN(Cc2ccccc2)CC1,·,-0.8
O=c1cc(CSC(=S)N2CCSCC2)c2ccccc2[nH]1,·,-2.6
CC(C)(C)c1sc(N)nc1-c1ccccc1,23.0,-0.8
Cc1cc(C)c2c(=O)[nH]n(C3CCCCC3)c2n1,2.0,·
CC(Sc1nnc(C(C)NC(=O)c2ccccc2)n1C)C(=O)Nc1ccc2c(c1)OCO2 (stereo unspecified),4.0,-2.7
Cc1ccc(OCC(=O)N(C)C)c(C)c1,8.0,·
CCCCCn1c(=NC(=O)c2ccncc2)c(C#N)cc2c(=O)n3ccccc3nc21,-9.0,·
CCN(CC(O)c1cccc(O)c1)C(=S)Nc1ccc(S(=O)(=O)N2CCOCC2)cc1 (stereo unspecified),-11.0,·
CCC(=O)N/N=c1/sc2ccccc2n1C,-7.0,·
C=CCn1c(C)cc(C(=O)CSc2nnc(-c3ccccc3F)n2C)c1C,-5.0,·
C#CCSCc1nc2ccccc2[nH]1,14.0,·
Clc1nc(NCc2ccco2)nc(Nc2nc(-c3ccccc3)cs2)n1,·,-0.3
C/C(=N\O)c1ccc2c(c1)OCCOCCOCCO2,-3.0,-0.2
COc1ccc(C(c2nnnn2C2CCCCC2)N2CCC(C)CC2)cc1OC (stereo unspecified),-3.0,0.4
Cc1nn(-c2ccc(F)cc2)c(Cl)c1/C=C/C(=O)N1CCC(C(N)=O)CC1,10.0,·
SMILES,S aureus helic,MgrA-DNA mod
Cc1ccc(CSc2nc3ccncc3n2Cc2ccc(C(=O)O)cc2)cc1,1.0,0.9
CCCCC(=O)Nc1ccc(S(=O)(=O)NC(C)(C)C)cc1,2.0,0.7
O=C1CC(=O)Nc2ccccc2N1,29.0,·
COc1cc(N/C=C(\C#N)c2nc(-c3cc4cc([N+](=O)[O-])ccc4oc3=O)cs2)c(OC)cc1Cl,·,-1.4
Cc1ccc(C(=O)Cn2c(C)csc2=Nc2ccccc2)cc1,9.0,1.1
CC1(C)CC(=O)c2cc(C#N)c(SCC(=O)N3CCc4ccccc43)nc2C1,7.0,·
CCOC(=O)/C=C(\C)N1N=C2c3ccc(OC)cc3CCC2C1c1ccc(OC)cc1 (stereo unspecified),12.0,0.7
CC1(C)CC2CC(C)(CN2C(=O)c2ccccc2NC(=O)c2ccco2)C1 (stereo unspecified),-2.0,2.0
CCSc1ncc(-c2nnnn2-c2ccccc2)c(-c2ccccc2)n1,·,-2.5
COc1cccc(C)c1OC(=O)c1cc(F)cc(Cl)c1,·,0.7
Cc1cc(C)nc(SC(C)C(=O)O)n1 (stereo unspecified),14.0,-7.5
COCCNC(=O)c1ccccc1NC(=O)c1ccco1,-1.0,-1.9
O=S1(=O)CCC(OC2CCS(=O)(=O)C2)C1 (stereo unspecified),3.0,·
COc1ccc(-c2nc(S(=O)(=O)c3ccccc3)c(NCC3CCCO3)o2)cc1 (stereo unspecified),-5.0,·
CCCN(CCC)S(=O)(=O)c1ccc(C(=O)Nc2nccs2)cc1,17.0,·
Cc1cc(=O)c2cc(Cl)ccc2[nH]1,·,4.1
CN(Cc1ccccc1)Cc1ccco1,6.0,-1.9
O=C(Nc1cccc(-c2nn[nH]n2)c1)c1ccc(Br)o1,2.0,4.7
CC1=C(C(=O)N2CCCCC2)C(c2ccc(Br)cc2)C2=C(CCCC2=O)N1 (stereo unspecified),1.0,-3.1
N#Cc1cn(CCOc2ccccc2F)c2ccccc12,10.0,-0.8
CCCNC(=O)c1ccc(N2CC3CC(C2)c2cccc(=O)n2C3)c(NC(=O)Nc2cccc(OC)c2)c1 (stereo unspecified),14.0,·
COc1ccc(NCC(C#N)C(=O)NCc2ccc(Cl)cc2)cc1 (stereo unspecified),2.0,-1.9
Cc1ccc(S(=O)(=O)NC2c3cccc4cccc(c34)C2Sc2ccccn2)cc1 (stereo unspecified),5.0,0.8
Cc1cc(=O)cc(C)n1-c1ccc(F)cc1F,27.0,0.3
COc1ccccc1N1CCN(C(=O)CN(c2ccc(C)cc2)S(=O)(=O)c2ccc(F)cc2)CC1,·,-1.6
SMILES,S aureus helic,MgrA-DNA mod
Cc1cc(C)nc(SCCS(=O)c2ccc(C(C)(C)C)cc2)n1 (stereo unspecified),6.0,·
COc1ccc(CCN=C2CCc3ccccc3N2)cc1OC,6.0,3.5
O=C(CCOc1ccccc1)Nc1nc2c(ccc3ccccc32)s1,9.0,1.6
NC(=O)C1(N2CCCCC2)CCN(C(=O)C2CCCCC2)CC1,-8.0,0.6
O=C(OCc1nnc(-c2ccccc2)o1)c1cccc(S(=O)(=O)N2CCc3ccccc32)c1,1.0,·
COc1cc(C)nc(N(Cc2ccccc2)S(=O)(=O)c2ccc(C)cc2)n1,·,-1.5
c1ccc(Cn2nnc3c(N4CCc5ccccc54)ncnc32)cc1,15.0,·
COc1ccc(CCNc2nc3c(c(=O)n(C)c(=O)n3C)n2Cc2ccccc2F)cc1OC,·,0.7
C1CCC(N2CCN(C3CCCC3)CC2)C1,-1.0,-5.7
CN1CCc2[nH]c3ccc(Cl)cc3c2C1,38.0,·
O=C(Nc1cccnc1)c1cccc(C(=O)Nc2cccnc2)c1,1.0,-3.5
CCN(C(=O)Cn1cnc2c(nc3n2CCCCC3)c1=O)c1cccc(Cl)c1,1.0,·
O=C(Sc1cccs1)c1csc(C2COc3ccccc3O2)n1 (stereo unspecified),-18.0,·
Cc1ccc(-n2nc3c(=O)n(CCCC(=O)N4CCCCC4)nc(C)c3c2C)cc1,-7.0,·
COC(=O)C1=C(C)NC(C)=C(C(=O)OC)C1c1cn(-c2ccccc2)nc1-c1ccco1,-3.0,1.9
COC(=O)c1ccc(COC(=O)c2cc(-c3ccco3)nc3ccccc23)cc1,8.0,·
Cc1ccc(-c2noc(CNC(=O)C(c3ccccc3)c3ccccc3)n2)cc1,-10.0,2.9
N#Cc1c(Nc2ccccc2)c(C=NCCN2CCOCC2)c[nH]c1=O,4.0,0.6
O=C(NCc1ccc2c(c1)OCO2)C1CCN(c2ncccn2)CC1,-8.0,-6.7
CCCN(Cc1nnc(-c2ccco2)o1)C(=O)Cc1n[nH]c(=O)c2ccccc12,-13.0,·
CC(C)c1ccccc1NC(=O)CC(C)(C)C,0.0,1.2
O=C(Nc1nc2ccccc2[nH]1)C1CCCN(C(=O)c2ccc(Cl)cc2)C1 (stereo unspecified),17.0,·
COc1ccc(C(=O)c2cnc3ccccn23)cc1Cl,-2.0,·
COc1cc(C(CC#N)CC#N)cc(OC)c1OC,·,2.6
O=C(CCN1CCN(C(c2ccccc2)c2ccccc2)CC1)N/N=C/c1cccnc1,8.0,·
SMILES,S aureus helic,MgrA-DNA mod
CC(=O)N1/C(=C/c2ccc(N(C)C)cc2)C(=O)c2ccccc21,-17.0,2.5
S=C1NCCc2ccccc21,-11.0,·
S=C(Nc1ccccc1)N1CCC(c2ccccc2)=N1,-3.0,-1.9
CCOC(=O)c1c(C)n(-c2ccc(OC)cc2)c2ccc(OC)cc12,11.0,-0.5
O=C(NC1CCN(C(=O)c2ccccc2Br)CC1)c1ccccc1,·,-1.8
O=C(Nc1ccc2nc(SCC(=O)N3CCc4ccccc43)sc2c1)c1ccccc1Cl,1.0,0.6
COCC(C)n1c(COc2ccccc2F)nnc1SCC(C)C (stereo unspecified),12.0,·
CN(C)C(=O)c1ccc(N(C)S(=O)(=O)c2ccccc2)cc1,1.0,1.0
CCOC(=O)c1cc2n(n1)C(C(F)(F)C(F)(F)F)CC(C)N2 (stereo unspecified),-14.0,3.7
Cc1cc(NC(=O)CN2C(=O)S/C(=C\c3ccccc3)C2=O)no1,-38.0,·
CS(=O)(=O)c1ccc(C(=O)O)c(Cl)c1,·,-2.6
N=c1nc(N)nc2n1NC(c1ccc(F)cc1)=CS2,10.0,-1.1
CC1(C)C(=O)C2(C(=O)NCc3ccccc3)CCC1C2 (stereo unspecified),7.0,-0.3
O=c1oc2cc(O)ccc2c(-c2ccccc2)c1-c1ccccc1,-13.0,8.4
Cc1nc2ccccn2c1-c1nnco1,17.0,-0.3
CSc1nnc2c(n1)OC1(CCCCC1)Nc1ccccc1-2,·,-2.6
Cc1ccc(O)c(NC(=O)C2CC(c3ccc(Cl)cc3)=NO2)c1 (stereo unspecified),15.0,·
CCc1ccc(N2C(=O)C3C4CCCC4=C4CCCC4C3C2=O)cc1 (stereo unspecified),11.0,3.5
CNC(=S)N(Cc1ccc2c(c1)OCO2)C1CCCC1,-4.0,·
C=C(C)Cn1c(-c2ccccc2)nc2ccccc21,9.0,-0.2
C=C(C)CC1C=CCC(CC(=C)C)N1 (stereo unspecified),4.0,0.4
CCN(CC)C(=O)c1ccc2c(=O)n(Cc3ccccc3)c(SCC(=O)C(C)(C)C)nc2c1,18.0,·
Cc1ccc2nc(SC(C)C(=O)c3c(N)n(C)c(=O)n(C)c3=O)[nH]c2c1 (stereo unspecified),8.0,·
Oc1cc2c(cc1C(c1ccc(C(F)(F)F)cc1)N1CCN(c3ccccc3)CC1)OCO2 (stereo unspecified),0.0,·
O=C(CSc1ncc(CO)n1Cc1ccc(Cl)cc1)Nc1ccc2c(c1)OCCO2,2.0,·
CC(=O)Nc1ccc(C2SCCS2)cc1,·,2.1
Cc1ccc2ccc(C3C(=O)c4cccnc4C3=O)nc2c1 (stereo unspecified),-1.0,-2.2
Sc1cccc2cccnc12,14.0,·
O=C(O)CN1C(=O)S/C(=C\c2ccccc2)C1=O,6.0,-3.6

# A second format for some results above.
> COCC(C)n1c(COc2ccccc2F)nnc1SCC(C)C (stereo unspecified)
  S aureus helic: 12.0	MgrA-DNA mod: ·

> CN(C)C(=O)c1ccc(N(C)S(=O)(=O)c2ccccc2)cc1
  S aureus helic: 1.0	MgrA-DNA mod: 1.0

# Only part of the results is shown; rates above refer to the full screens.
